VACV mCherry inh: inhibitors of vaccinia virus infection (mCherry reporter signal) | Potency, µM (doses to about 36.5 µM), inactives show at the highest dose activity change, negative = inhibition, most hits filed as inhibitors | Vaccinia virus mCherry reporter infection, fluorescence; about a quarter of the inactives have no number | AID 720579 | hit rate 0.63% among 310,000; active = well fitted inhibition curve with a large enough effect; inconclusive = small, poorly fitted or top-dose-only effect; inactive = no such curve, though single readings can be large or run the other way; tested in A549 cells; further: nearly all actives have a fitted effect of over 35% in size; inactives centre near -10
VACV Venus inh: inhibitors of vaccinia virus (Venus reporter) | Vaccinia virus Venus reporter expression, fluorescence | Potency, µM (doses to about 36.5 µM), without a hit: at the highest dose activity change, negative = inhibition, actives largely listed as inhibitors | hit rate 0.46% among 330,000; active means well fitted inhibition curve with a large enough effect; inconclusive means small, poorly fitted or top-dose-only effect; inactive means no such curve, though single readings can be large or run the other way; tested in A549 cells; further: nearly all actives have a fitted effect of over 30% in size; inactives centre near -10
* hit, by the source's call; i = inactive; ? = inconclusive; / = not tested or not shown; & = joins results of further samples; [ ] = dose if it differs, or a comment. On the % scale 0 is the no-effect control and ±100 the full control effect; potency means the concentration at half of the fitted maximal effect.

SMILES	VACV mCherry inh	VACV Venus inh
COc1ccc(N(C(=O)c2cccc(OC)c2OC)C2C=CS(=O)(=O)C2)cc1 (configuration not stated)	i	-7.6%
C#CCOCCOCCOCCNc1nc(N2CCN(C(=O)[C@H](Cc3ccc(O)cc3)n3cc([C@@H](N)CC(C)C)nn3)CC2)nc(N2CCN(C(=O)[C@H](Cc3cc4ccccc4[nH]3)n3cc([C@@H](N)CC(C)C)nn3)CC2)n1	i	-10.0%
COc1cc(OC)cc(C(=O)Nc2cc3nn(-c4ccccc4)nc3cc2Cl)c1	-8.8%	?
COCCNC(=O)c1cccc(OC2CCN(Cc3ccc(C(=O)OC)cc3)CC2)c1	i	-14.9%
O=C1NN(c2ccccc2)C(=O)C1=Cc1ccccc1	i	-9.5%
O=C(O)c1cccc(-c2ccc(/C=N/Nc3ccc([N+](=O)[O-])cc3)o2)c1	?	21.4%
COc1ccc(S(=O)(=O)NC(=O)C2(C)CCN2C(=O)c2cccc(F)c2)cc1 (configuration not stated)	49.7%[activator]	-6.0%
COc1ccc2c(c1)sc1ncc(C(=O)NCc3cccc(C)c3)c(=O)n12	2.7%	-11.9%
O=C(CSc1nnc(COc2ccc3c(c2)CCCC3)o1)Nc1ccc(F)cc1	-16.9%	-3.2%
COC(=O)c1ccc2nc(C)cc(Nc3ccc(N(C)C)cc3)c2c1	?	-8.8%
O=C(/C=C/c1ccc(F)cc1)NC(=S)N1CCN(c2ccccn2)CC1	-13.6%	-6.8%
O=[N+]([O-])c1cc(C(F)(F)F)ccc1NN=C1CCCC1	-9.9%	0.7%
O=C(NCCCl)Nc1ccc(Cl)c([N+](=O)[O-])c1	-13.5%	-3.2%
Cc1cc(NC(=O)CSc2nc3c([nH]c4ccccc43)c(=O)n2-c2ccccc2)no1	i	-15.5%
COc1cc2sc3ccc(-c4ccc(N(C)C)nc4)cc3c(=O)c2cc1OC	-17.0%	-23.1%
C=Cc1ccc(Cn2c(C(=O)O)c(CNCCc3ccccc3)c3ccc(C)cc32)cc1	-19.2%	?
CCCS(=O)(=O)NCc1cn2cccc(C)c2n1	-11.5%	-4.4%
Cc1onc(-c2ccccc2Cl)c1C(=O)Oc1cc(N)n(S(=O)(=O)c2ccc(F)cc2)n1	?	-25.8%
COc1ccc(CCNc2cc(C)[nH]c(=O)c2)cc1OC	-19.2%	-12.1%
O=C(Nc1ccc(F)cc1)N1Cc2ccccc2-n2nncc2C1	-3.9%	-18.4%
CCCCN(C)C(=O)c1ccc2c(c1)N(Cc1cccc(Cl)c1)C(=O)c1ccccc1S2=O (configuration not stated)	-15.6%	-12.3%
Cc1ccc(NC(=O)c2ccc(CSc3nnc(-c4ccncc4)n3C)cc2)c(C)c1	/	-11.7%
CN(C)c1ccc(N2C(=NC(=O)c3ccccc3)SC3CS(=O)(=O)CC32)cc1 (configuration not stated)	?	1.9%
CCOc1ccc(CC(=O)N/N=C/c2cccnc2)cc1	-22.4%	-10.5%
O=C1CN(C(=O)c2ccc(Br)o2)C(c2ccccc2)c2cc(Br)ccc2N1 (configuration not stated)	?	?

A draw from above in order of count of non-hydrogen atoms, low to high.
SMILES	VACV mCherry inh	VACV Venus inh
COc1ccc(CCNc2cc(C)[nH]c(=O)c2)cc1OC	-19.2%	-12.1%
Cc1onc(-c2ccccc2Cl)c1C(=O)Oc1cc(N)n(S(=O)(=O)c2ccc(F)cc2)n1	?	-25.8%
CCCCN(C)C(=O)c1ccc2c(c1)N(Cc1cccc(Cl)c1)C(=O)c1ccccc1S2=O (configuration not stated)	-15.6%	-12.3%

(further entries)
SMILES	VACV mCherry inh	VACV Venus inh
O=C(C[C@H]1C/C=C\CCCC(=O)OC[C@H]2CCCN2C1=O)NCCO	i	2.5%
Cc1cc(C)c2c(C)[nH]nc2n1	-14.7%	-5.6%
CCOC(=O)c1c(NC(=S)Nc2cccc(C)c2)sc2c1CC(C)(C)SC2	-14.6%	-11.2%
COc1ccc(CCN2C(=O)N(c3ccc(F)cc3)C(=O)C2CC(=O)Nc2ccc(OC)cc2)cc1 (configuration not stated)	-5.5%	-8.4%
O=[N+]([O-])O[C@H]1CO[C@H]2[C@@H]1OC[C@H]2O[N+](=O)[O-]	-5.9%&-5.4%	-19.5%&1.1%
CCOC(=O)c1c(/N=C/c2ccccc2O)sc2c1CCC2	-15.7%	-3.8%
CCCCN1CC(COCc2ccccc2)OCCS1(=O)=O (configuration not stated)	?	0.0%
COc1ccc(C(=O)C2CCCCC2=O)cc1 (configuration not stated)	-5.0%	-5.0%
N=C(N)N=Nc1c(O)[nH]c2ccc(Br)cc12	-13.3%	-14.8%
C=CC(=O)Nc1ccc(Nc2ccnc(Nc3ccc(N4CCN(C)CC4)cc3)n2)cc1	5.01µM*	10µM*
CCN(CC)S(=O)(=O)c1cccc(C(=O)Nc2ccccc2)c1	?	?
Cc1ccc(-c2ccc(=O)n(CC(=O)NCCN3CCCCC3C)n2)cc1 (configuration not stated)	-1.4%	-3.0%
O=C(NCc1cccnc1)C1CCN(S(=O)(=O)c2cc([N+](=O)[O-])ccc2Cl)CC1	14.1µM*	?
CCN1CCN(Cc2c(O)ccc3oc(C)c(C(=O)Nc4cccc(C(F)(F)F)c4)c23)CC1	-14.9%	-11.0%
COc1cc(OC)c(NC(=O)c2cncn2-c2ccc(F)cc2)cc1Cl	-24.9%	-1.7%
Cc1cccc(-c2cnc(C)nc2C2CCCN(C(=O)c3cccc(Cn4cccn4)c3)C2)c1 (configuration not stated)	-7.7%	1.0%
O=C(CCN=C1NS(=O)(=O)c2ccccc21)N1CCc2ccccc2C1	i	-1.1%
Cc1cc(NC(=O)/C=C\C(=O)O)c([N+](=O)[O-])cc1C	-16.3%	-6.2%
CCCN1CCc2c(sc(NC(=O)C3CCN(S(=O)(=O)c4cccs4)CC3)c2C(N)=O)C1	?	-15.2%
CC(=O)N[C@@H](C)C(=O)NCC1Cc2cc(C)cc(-c3cnccn3)c2O1 (some centres not stated)	-7.2%	3.7%
C=CCn1c(SCC(=O)c2ccc(O)c(O)c2)nnc1-c1cccnc1	?	0.7%
Cc1ccc(CN2CCN(C(=O)/C=C/[C@H]3O[C@@H](n4cc(C)c(=O)[nH]c4=O)C[C@@H]3O)CC2)cc1	27.3%	2.5%
Cc1cccc(N(CC(=O)N2CCCC2)S(C)(=O)=O)c1C	-5.6%	-13.3%
Cc1ccccc1C(=O)N1CCC(C(=O)Nc2nccs2)CC1	i	3.6%
C[C@@]12C(=O)Nc3cc(Cl)ccc3C(=O)N1[C@H]1c3ccccc3OC[C@@H]1[C@@H]2c1ccccc1	-17.9%	?

Exported with bars between the fields: entries from further up.
Structure | VACV mCherry inh | VACV Venus inh
COc1ccc(C(=O)C2CCCCC2=O)cc1 (configuration not stated) | -5.0% | -5.0%
CCCCN1CC(COCc2ccccc2)OCCS1(=O)=O (configuration not stated) | ? | 0.0%

(listing goes on)
SMILES	VACV mCherry inh	VACV Venus inh
Cc1cc2c(cc1S(=O)(=O)NCc1ccccc1)n(C)c(=O)c(=O)n2C	-4.5%	-1.7%
CCCCCCC(C)NC(=S)Nc1cc(S(=O)(=O)N(C)C)ccc1C (configuration not stated)	-3.9%	-25.5%
COc1ccc(C(=O)NC2CC2)cc1OC1CCN(Cc2ccccc2)CC1	-12.2%	-16.2%
CCCOc1ccc(NC(=O)C2CC(=O)N(C)C(=Nc3cccc(OC)c3)S2)cc1 (configuration not stated)	i	-16.4%
COc1ccccc1OCCNC(=O)Cc1ccc(Cl)c(Cl)c1	-21.7%	-8.8%
C#CCNC(=O)C1=C[C@H](c2ccc(Br)cc2)C[C@H](OCCCCO)O1	i	-13.8%
O=C(OCCCOC(=O)c1ccc(Br)o1)c1ccc(Br)o1	-14.5%	-8.0%
CN1C(=O)/C(=C/c2ccc(O)c([N+](=O)[O-])c2)N(C)C1=S	-1.1%	-9.8%
CC(=O)Oc1ccc(C(=O)[C@H]2[C@H]3C(=O)N(c4ccccc4)C(=O)[C@H]3[C@@H]3C=CC=NN32)cc1	i	1.9%
COc1ccccc1Cc1nc2ccccc2nc1SCC(=O)Nc1ccc2c(c1)OCO2	i	-11.7%
Cc1ccc([C@H]2N[C@]3(CCCN(Cc4ccc(C(F)(F)F)cc4)C3=O)[C@H]3C(=O)N(C)C(=O)[C@@H]23)cc1	-17.8%	-19.8%
COc1ccc(C(C(=O)NC2CCCCC2)N(C(=O)c2ccccn2)c2cccnc2)c(OC)c1 (configuration not stated)	-21.7%	-4.4%
O=C(NCC(=O)N(c1cccc(F)c1)C(C(=O)NC1CCCC1)c1cccnc1)c1cccs1 (configuration not stated)	-5.9%	-5.7%
CCOc1ccc(C(C)NC(=O)c2cc(=O)[nH]c3ccccc23)cc1OCC (configuration not stated)	13.1%	-0.2%
CN1CCN(C(=O)c2cc3c(c(-c4cccc(-c5cc6ccccc6o5)c4)n2)[C@@H](CCO)N(S(=O)C(C)(C)C)C3)CC1 (some centres not stated)	18.0%	8.2%
NC(=O)CCCn1c(C(=O)c2cc(Cl)c(N)c(Cl)c2)c2ccc([N+](=O)[O-])cc2[n+]1[O-]	?	11.2µM*
O=c1[nH]c(CCl)nc2cc(-c3ccc(Cl)cc3)sc12	-14.6%[1.46 µM]	-28.6%
CC(=O)N1CCCc2cc(S(=O)(=O)N(C)CC(=O)Nc3ccc(Cl)cc3C)ccc21	-1.9%	-23.1%
COc1ccc(CC(=O)Nc2ccc(-c3nc4ccccc4s3)cc2Cl)cc1	-13.7%	-7.5%
CCOC(=O)c1cccc(NC(=O)CN(C)S(=O)(=O)c2cnc[nH]2)c1	-3.1%	-19.9%
CCN1C(=O)C(Cc2nc3ccccc3c(=O)n2-c2ccccc2)c2cc(Br)ccc21 (configuration not stated)	-24.9%	-10.7%
Nn1c(SCc2ccc(Br)cc2)nnc1-c1ccccn1	i	-15.8%
CC1CCc2c(sc(NC(=O)C3CCCO3)c2C#N)C1 (configuration not stated)	-4.9%	-17.4%
Cc1ccc2nc(-c3c[nH]c4ccccc34)c(Nc3ccccc3)n2c1	-10.1%	-12.1%
O=C(CN1C(=O)C2CC=CCC2C1=O)Nc1ccc(Br)cc1 (configuration not stated)	-5.5%	-20.0%

Carrying on:
SMILES	VACV mCherry inh	VACV Venus inh
CCCSc1ncc(Cl)c(C(=O)Nc2ccc(S(=O)(=O)N3CCC(C)CC3)cc2)n1	-20.2%	-20.7%
COCCCNC(=O)Cn1cnc2sc(C)c(S(=O)(=O)N3CC(C)CC(C)C3)c2c1=O (configuration not stated)	-7.9%	3.8%
Cc1ccc(N2CC(C)Cn3c2nc2c3c(=O)[nH]c(=O)n2C)cc1C (configuration not stated)	-21.4%	-15.5%
O=C1NC(=O)C2C3OC(C(Br)C3Br)C12 (configuration not stated)	i	-9.7%
C[C@@](N)(Cc1ccc(O)c(O)c1)C(=O)O	i	-9.2%
CC(O)(c1ccc(F)c(F)c1)c1nc(-c2ccc3ccccc3c2)cs1 (configuration not stated)	i	8.5%
O=C(Nc1cc(Cl)ccc1O)C1CC(c2ccccc2O)=NO1 (configuration not stated)	?	?
Cc1ccccc1NC(=S)N/N=C/c1ccc(O)cc1O	?	?
Cc1cc(NS(=O)(=O)c2ccc(NC(=S)NC(=O)c3ccncc3)cc2)no1	-13.4%	64.2%[activator]
CC1CCCC(C)N1C(=O)c1cc(-c2cccs2)on1 (configuration not stated)	-18.2%	-11.6%
Cc1cc(NS(=O)(=O)c2ccc(NC(=O)COc3ccc(Cl)cc3)cc2)nc(C)n1	-4.5%	1.8%
O=C(C1CCC1)N1CCc2cc(S(=O)(=O)NC3CCCC3)ccc21	-11.0%	-7.9%
COc1ccc(OC)c(S(=O)(=O)NC2CC(=O)N(c3ccc(C)c(C)c3)C2)c1 (configuration not stated)	-12.9%	-10.2%
Cc1nc(C)c(-c2ccccc2)c(=O)[nH]1	/	-10.5%
CCOc1ccc(-c2nonc2NC(=O)COc2c(C)cc(C)cc2C)cc1OCC	-4.2%	-3.9%
COc1ccc(C(C)(O)c2nc(-c3cccc(C(=O)O)c3)cs2)cc1 (configuration not stated)	11.2%	-5.4%
CCOC(=O)CC1=CCc2c1ccc(OC)c2OC	i	-5.5%
COc1cc(C2C(C(=O)OC(C)C)=C(C)Nc3[nH]c(=O)[nH]c(=O)c32)ccc1O (configuration not stated)	-0.2%	-16.3%
COc1cccc(C(=O)N2CCN(c3ccc(N4CCOCC4)nn3)CC2)c1	-19.8%	-11.9%
C[C@@H]1COC(=O)[C@@H](Cc2ccc(F)cc2)C/C=C\C[C@@H](CC(=O)N[C@H](CO)Cc2ccccc2)C(=O)N1	i	-17.2%
O=C(C1=NN[C@@H]2C(=O)N(c3cccc(F)c3)C(=O)[C@H]12)c1cnccn1	-15.6%	-8.0%
Cc1ccc(C)c2[nH]c(=O)c(CN(Cc3ccco3)S(=O)(=O)c3ccc4c(c3)OCCO4)cc12	i	-13.7%
O=C(NC1CCCCC1)N1Cc2cc(N3CCOCC3)ccc2-n2nncc2C1	-1.1%	-6.3%
COc1ccc(C(=O)NC(C)c2nnc(SCc3ccc(Cl)c(Cl)c3)n2C)cc1 (configuration not stated)	-2.7%	-16.3%
CCOC(=O)c1ccc(N2C(=O)c3n[nH]c(-c4cccs4)c3C2c2cccc(F)c2)cc1 (configuration not stated)	-5.2%[7.34 µM]	-14.3%[7.34 µM]
O=C(O)c1ccc(-c2ccccn2)s1	i	1.5%
CC1(C)CC(=O)c2sc(NS(=O)(=O)c3ccc([N+](=O)[O-])cc3)nc2C1	-5.4%	-14.4%
CC(=O)Nc1ccc(CN(C)c2c(C)nc3ccc(C(=O)N4CCN(c5ccccc5)CC4)cn23)cc1	i	-4.4%
O=C(O)CNc1nc(-c2ccccc2)nc2c1oc1ccccc12	-4.9%	7.8%

Assay outcomes from PubChem BioAssay.

Hits appear at their usual frequency; 0.86% or so of the library scored in one or more.
